# PINK1 expr mod – modulators of PINK1 expression | PINK1 immunofluorescence, high-content cytometry, 24 h | Potency, µM (series often up to 76.6 µM), inactives show top-dose activation (PINK1 increase), usual class: activators | hit rate 0.2% among 410,000 | AID 624263; active = well fitted activation curve with a large enough effect; inconclusive = small, poorly fitted or top-dose-only effect; inactive = flat fitted curve, though single readings scatter; cell line not stated here;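 also: potency is read from the fitted curve at half-maximal effect; % of control where 0% means no effect; nearly all actives have a fitted effect of over 65% in size; a mitochondrial uncoupler was the plate control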
#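 Cells are seeded, rested 12 hours, then given compound at five concentrations or DMSO for 24 hours. After fixation, blocking and antibody staining, PINK1 amount and mitochondrial localization are scored; CCCP serves as control.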
# Six1-Eya2 inh – blocks human Six1 binding to Eya2; AlphaScreen GST-Six1/His-Eya2 binding, biochemical; hits give low values; control for the full effect not named in the record; activity change, % (test concentration not listed); hit rate 0.56% among 360,000; Q15475+O00167; in the data active = activity change below about -65%; inconclusive = about -30% to -65%; inactive = above about -30%; also: % is scaled to controls: 0 for no effect and ±100 for the full control effect; compound concentration not given in the record
#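 AlphaScreen luminescence read after one hour at 37 °C in darkness. Pin-transferred compounds met GST-Six1 and His-Eya2 protein (5X stock 250 nM/500 nM) plus glutathione donor and Ni-chelate acceptor beads (5X, 50 ug/mL).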
# TRPV1 PAM – human TRPV1 potentiation; TRPV1-expressing cells, Fluo-8 calcium influx, capsaicin EC20 potentiation; host cell line not named in the record; control for the full effect not named in the record; hit rate 0.02% among 320,000; Q8NER1; potentiation, % at 8.33 µM; active means potentiation above 80%; inconclusive means 30% to 80%; inactive means below 30%; also: 0% is about no effect
#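 Cells expressing TRPV1 were dye-loaded with Fluo-8 and read kinetically: 10 s baseline, 3 min after compound (agonist portion), then 2 min after EC20 capsaicin (allosteric enhancer portion). Calcium-bound dye fluorescence at 480/520 nm.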
# D2 agonist – agonists of human D2 dopamine receptor (beta-arrestin). DiscoveRx PathHunter D2 beta-arrestin, luminescence, 90 min; 100% = 57 uM dopamine signal. hit rate 0.084% among 360,000. AID 624465. P14416. activation, % (concentration not given with the values); in the data active = activation above about 40%; inconclusive = about 15% to 40%; inactive = below about 15%; also: compound concentration not given in the record; the text of the record calls up to 30% inactive
# Target sequence (P14416 whole entry, looked up): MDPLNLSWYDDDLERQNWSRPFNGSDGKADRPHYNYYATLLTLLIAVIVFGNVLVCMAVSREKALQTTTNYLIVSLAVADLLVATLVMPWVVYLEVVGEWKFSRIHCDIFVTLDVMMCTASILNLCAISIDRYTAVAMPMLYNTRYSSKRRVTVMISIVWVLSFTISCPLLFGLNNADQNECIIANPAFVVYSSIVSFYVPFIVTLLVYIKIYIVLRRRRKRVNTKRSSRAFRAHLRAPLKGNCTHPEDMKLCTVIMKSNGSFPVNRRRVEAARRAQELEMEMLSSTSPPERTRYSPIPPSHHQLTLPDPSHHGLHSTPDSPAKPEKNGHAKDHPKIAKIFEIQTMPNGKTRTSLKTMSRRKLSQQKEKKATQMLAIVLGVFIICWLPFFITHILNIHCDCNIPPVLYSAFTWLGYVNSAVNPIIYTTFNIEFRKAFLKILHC
#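 DiscoveRx PathHunter D2 beta-arrestin cells (2,100/well) attached overnight, then compound-stimulated 90 min at 37 C in HBSS/10 mM HEPES/0.1% Tween-20 buffer; beta-galactosidase complementation read by luminescence after 1 h at ambient temperature. Dopamine 57 uM final (EC100) as control.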
# CtBP-E1A inh – CtBP/E1A binding inhibition. hit rate 0.49% among 340,000. AlphaScreen GST-E1A/His-CtBP binding, 1536-well; hits give low values; control for the full effect not named in the record. activity change, % (test concentration not listed); in the data active means activity change below about -65%; inconclusive means about -30% to -65%; inactive means above about -30%; also: % is scaled to controls: 0 for no effect and ±100 for the full control effect; compound concentration not given in the record
#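 Protein mix (5X: 125 nM each GST-E1A, His-CtBP) was incubated with pinned compound 2 h at 37 deg C in dark, in 50 mM Tris pH 8.0 buffer with 300 mM NaCl. Glutathione donor and nickel acceptor beads followed; AlphaScreen signal read after 1 h.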
# D2 potentiator – potentiates the human D2 dopamine receptor allosterically; P14416; DiscoveRx D2 beta-arrestin cells, luminescence, 90 min; 100% = 57 uM dopamine signal; potentiation, % (test concentration not listed); hit rate 0.23% among 360,000; active = potentiation of 50% or more; inconclusive = 30% to 50%; inactive = 30% or less;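 also: compound concentration not given in the record; tested on top of an EC20 dose of dopamine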
#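 D2 cells co-treated with compound plus 50 nM dopamine (EC20) for 90 min at 37 deg C to detect potentiation. Beta-arrestin recruitment was read as enzyme-fragment luminescence after 1 h at ambient temperature. Full response was set by 57 uM dopamine.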
# Sfp inh – blocks B. subtilis Sfp PPTase activity; Biochemical Sfp PPTase activity, qHTS; Potency, µM, without a hit: max response, negative = inhibition, actives largely listed as inhibitors; hit rate 3.5% among 310,000; active = well fitted inhibition curve with a large enough effect; inconclusive = small, poorly fitted or top-dose-only effect, or another doubt; inactive = no such curve, though single readings can be large or run the other way;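 also: the enzyme is Sfp with the accession as filed and its product quenches rhodamine fluorescence; potency is read from the fitted curve at half-maximal effect; 0% = enzyme reaction without inhibitor and -100% = no enzyme wells; top concentration of the series not given in the record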
#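 With Hepes-Na pH 7.6 buffer containing 10 mM MgCl2, Sfp (15 nM) modified BHQ-2-YbbR (12.5 uM) using rhodamine-CoA (5 uM). Two reads 30 minutes apart at 525/598 nm yielded each well's rate.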
# Active calls of the source: *; ? = inconclusive; . = not tested or not shown; & = joins results of further samples; [ ] = dose if it differs, or a comment.
no.	Structure	CtBP-E1A inh	D2 agonist	Six1-Eya2 inh	TRPV1 PAM	D2 potentiator	Sfp inh	PINK1 expr mod
1	Cc1ccc(S(=O)(=O)CCc2nc3ccccc3n2CCC#N)cc1	-3.7	-2.0	3.4	16.8	-21.2	11.4%	-0.4%
2	CCOC(=O)CNC(=O)c1ccccc1	1.5	-0.2	5.3	2.1	28.3	12.8%	0.0%
3	CCCC(C(=O)NC1CCCC1)N(C(=O)c1snc(C(N)=O)c1N)c1ccc(F)cc1 (stereo not given)	6.7	-2.1	0.3	-1.4	-6.2	5.6%	3.0%
4	COC(=O)CN(C)C(=O)c1ccc(OC2CCN(S(=O)(=O)N(C)C)CC2)cc1	0.3	7.5	-2.2	0.6	2.7	1.5%	0.1%
5	Cc1ccc(S(=O)(=O)c2ccc([N+](=O)[O-])o2)cc1	16.0	3.2	?	.	-25.3	.	-5.5%
6	CC1CCCN(C(=O)CSc2nnc(-c3ccc(S(=O)(=O)N4CCOCC4)cc3)n2C)C1 (stereo not given)	1.3	0.1	1.8	19.2	-0.1	-4.6%	-1.2%[38.3 µM]
7	Cc1cc(C)c2nc(N3CCCC(C(=O)N4CCN(c5ncccn5)CC4)C3)sc2c1 (stereo not given)	3.4	-1.5	2.4	0.4	-3.8	?	-3.5%
8	O=c1[nH]c2cc3c(cc2cc1CN(Cc1ccco1)C(=S)NCC1CCCO1)OCCO3 (stereo not given)	.	-3.8	-9.5	-9.6	-10.7	18.7%	4.6%
9	O=C(CSc1nnc(CN2CCCCC2)n1-c1ccccc1)c1ccc2c(c1)OCO2	3.1	3.1	0.0	-16.3	-14.8	17.7%	-0.8%
10	C=CCOc1c(Br)cc(/C=N/NC(N)=O)cc1OC	-0.7	-2.9	-0.5	-4.8	-4.1	8.2%	-0.6%
11	C/C(=C\c1ccccc1)CN1CCN(c2ccccc2)CC1	-9.5	?	-13.7	11.7	1.4	-27.6%	6.4%[38.3 µM]
12	Cc1nc(/C=[N+](\[O-])C(C)(C)/C=N/O)n(O)c1C	-4.3	-9.3	-18.1	-7.2	-2.3	-20.8%	2.7%
13	C#CCNC(=O)C1=C[C@@H](c2coc3ccccc3c2=O)C[C@@H](OCc2ccc(CO)cc2)O1	3.7	-1.5	3.2	-4.8	-12.5	-8.0%	0.1%
14	CN1CCN(c2cc(N3CCc4ccccc4C3)c(F)cc2[N+](=O)[O-])CC1	5.2	-5.3	?	22.7	-36.8	-12.8%	-2.1%
15	Cc1ccc(S(=O)(=O)Nc2cccc(-c3ccc(N4CCCCCC4)nn3)c2)c(C)c1	-8.2	-0.9	-4.7	14.0	-10.7	5.0%	3.0%
16	Nc1ccc2cc3[nH]c4cc(N)ccc4c3nc2c1	5.3	9.1	?	.	14.0	.	6.7%
17	COc1ccc(C2Nc3ccccc3C(=O)N2c2ccccc2)cc1Cn1cc([N+](=O)[O-])cn1 (stereo not given)	1.2	-1.0	-1.6	-1.9	5.3	27.4%	0.8%
18	COc1ccc(S(=O)(=O)NCC2CCCO2)cc1NC(=O)c1ccccc1F (stereo not given)	-22.4	-3.1	-7.4	?	-9.0	-2.3%	0.9%
19	COc1ccc(-c2cc(C(=O)OCC(=O)c3cccc([N+](=O)[O-])c3)c3cc(C)ccc3n2)cc1	-6.4	-3.8	2.1	8.0	-5.7	4.2%	0.0%
20	COc1ccc(OC)c(/C=N/NC(=O)CSc2cc(C)nc3c(OC)cccc23)c1	-4.8	-1.8	-8.2	-5.3	-8.8	-10.4%	1.5%
21	Cc1cc(NC(=O)C(C)SCC(=O)Nc2cc(C(F)(F)F)ccc2N2CCOCC2)no1 (stereo not given)	-6.6	-3.2	6.4	2.8	4.2	.	3.8%
22	COc1cc(C(=O)N2CCN(Cc3ccc4c(c3)OCO4)CC2)c([N+](=O)[O-])cc1OC	-10.4	-4.5	4.6	-10.2	-3.7	19.2%	0.9%
23	Cc1nn(C)cc1/C=N/NC(=O)Cn1nccc1C	-2.7	2.3	2.5	-17.7	-7.0	-0.4%	-2.1%
24	CCC/C=C1/CCCOC(C(=O)NCc2ccccn2)(C(F)(F)F)C1 (stereo not given)	5.6	-1.5	5.6	.	-1.7	10.7%	1.3%
25	COc1ccc(C(=O)c2ccc(N(C)C)cc2)c2ccccc12	-15.4	-1.4	-17.9	-5.0	-0.6	-1.9%	13.1%[38.3 µM]
26	CC(O)CNCCCOc1cccc(C(F)(F)F)c1 (stereo not given)	12.2	-1.3	17.6	0.9	-17.4	?	-0.9%
27	Cn1nc(C2CC2)cc1NC(=O)C1(C)CCN1C(=O)Cc1ccc(-c2ccccc2)cc1 (stereo not given)	-11.0	-2.9	-16.6	.	4.0	.	-0.5%
28	Cn1cc(C(CC(=O)O)C(=O)O)c2ccccc21 (stereo not given)	1.9	-2.1	2.9	7.2	-3.9	-3.6%	5.8%[38.3 µM]
29	FC(F)C(F)(F)C1=CC(c2ccccc2)=NCCN1	0.4	0.0	6.9	1.2	-8.2	21.5%	-2.8%
30	CCn1c(CNc2ccc(Cl)cc2)nnc1SCC#N	.	1.6	0.5	0.4	-2.7	6.1%	-0.6%

# In another format: 8 of the compounds above
# Values run as follows: CtBP-E1A inh	D2 agonist	Six1-Eya2 inh	TRPV1 PAM	D2 potentiator	Sfp inh	PINK1 expr mod
16: Nc1ccc2cc3[nH]c4cc(N)ccc4c3nc2c1
 : 5.3	9.1	?	.	14.0	.	6.7%
17: COc1ccc(C2Nc3ccccc3C(=O)N2c2ccccc2)cc1Cn1cc([N+](=O)[O-])cn1 (stereo not given)
 : 1.2	-1.0	-1.6	-1.9	5.3	27.4%	0.8%
18: COc1ccc(S(=O)(=O)NCC2CCCO2)cc1NC(=O)c1ccccc1F (stereo not given)
 : -22.4	-3.1	-7.4	?	-9.0	-2.3%	0.9%
19: COc1ccc(-c2cc(C(=O)OCC(=O)c3cccc([N+](=O)[O-])c3)c3cc(C)ccc3n2)cc1
 : -6.4	-3.8	2.1	8.0	-5.7	4.2%	0.0%
20: COc1ccc(OC)c(/C=N/NC(=O)CSc2cc(C)nc3c(OC)cccc23)c1
 : -4.8	-1.8	-8.2	-5.3	-8.8	-10.4%	1.5%
21: Cc1cc(NC(=O)C(C)SCC(=O)Nc2cc(C(F)(F)F)ccc2N2CCOCC2)no1 (stereo not given)
 : -6.6	-3.2	6.4	2.8	4.2	.	3.8%
22: COc1cc(C(=O)N2CCN(Cc3ccc4c(c3)OCO4)CC2)c([N+](=O)[O-])cc1OC
 : -10.4	-4.5	4.6	-10.2	-3.7	19.2%	0.9%
23: Cc1nn(C)cc1/C=N/NC(=O)Cn1nccc1C
 : -2.7	2.3	2.5	-17.7	-7.0	-0.4%	-2.1%

# Further records follow:
no.	Structure	CtBP-E1A inh	D2 agonist	Six1-Eya2 inh	TRPV1 PAM	D2 potentiator	Sfp inh	PINK1 expr mod
31	COC(=O)Nc1ccc(C)c2nsnc12	14.2	-2.7	18.4	26.5	-9.9	20.4%	1.3%
32	COc1ccc(/C=N/NC(=O)c2cccnc2)cc1CSc1nc2ccccc2s1	-20.8	-5.1	-14.0	-8.9	24.5	0.5%	6.9%
33	CC(C)CNC(=O)COC(=O)c1c2c(nc3ccccc13)/C(=C/c1cccs1)CC2	10.4	1.8	46.5	18.7	-5.2	44.7µM*	1.4%
34	Cc1ccc(NC(=S)c2nc3ccccc3[nH]2)c(C)c1	?	-1.7	-72.0*	-7.1	-11.3	-1.4%	16.7%
35	O=C(CC12CC3CC(CC(C3)C1)C2)NCc1ccc(F)cc1	11.0	1.3	1.0	-20.6	12.1	8.2%	7.4%
36	Cc1oc2c(F)c(F)c(F)c(F)c2c1S(=O)(=O)Nc1cccc(C(F)(F)F)c1	0.0	3.6	-23.1	13.0	-28.3	11.3%	?
37	Cc1cc(C)cc(NC(=O)[C@@H](NC(=O)c2ccco2)C(C)C)c1	-12.7	-1.9	6.0	-1.0	-4.7	-2.8%	9.9%
38	COc1ccc(C(=O)Cc2ccccc2)cc1OC	4.7	0.2	14.7	28.6	-11.4	5.1%	7.1%
39	O=C1CCCN2N=C(SCC(=O)N3N=C(c4ccc(Br)cc4)CC3c3ccc(F)cc3)SC2=N1 (stereo not given)	-10.2	0.9	-14.5	-5.7	-7.0	13.6%	-1.0%
40	Cc1c(NC(=O)COC(=O)Cn2cc(C(F)(F)F)ccc2=O)cccc1[N+](=O)[O-]	12.8	-0.8	32.7	-10.0	1.4	.	0.0%
41	C/C(=N/NC(N)=S)c1cc2ccc(O)cc2oc1=O	-6.4	-0.5	?	.	4.4	?	-0.8%
42	COc1ccc(C(C#N)=Cc2cccc(OC)c2OC)cc1	5.4	-3.0	44.8	.	6.3	.	5.3%
43	O=C(NCc1ccc(F)cc1)C1CC(=O)N(Cc2ccco2)C1 (stereo not given)	3.7	-1.7	-2.3	-1.8	7.5	-24.4%	-1.1%
44	O=c1cnnc(N/N=C/c2cccs2)[nH]1	.	-4.9	?	-24.1	-12.8	?	3.9%
45	C/C(=N\NC(=O)c1nn(C)c(C)c1Br)c1ccc(NC(=O)C2CCCC2)cc1	0.5	-0.4	2.2	-9.1	-0.1	16.2%	2.2%
46	Cc1nc(SCC(=O)N2CCOCC2)c2c(C)c(C)sc2n1	-6.9	-3.0	-4.7	0.8	-3.2	10.0%	0.4%
47	O=C(Cc1cccs1)N(c1ccc(Br)cc1)C1C=CS(=O)(=O)C1 (stereo not given)	6.8	-2.6	15.9	0.0	0.4	14.7%	-1.6%
48	CC1CN(S(=O)(=O)c2ccccc2)C(C)N1C(=O)N1CCOCC1 (stereo not given)	0.0	-4.5	-20.5	-3.2	1.1	12.9%	0.5%
49	CC1CC1C(=O)OCC(=O)NC(=O)NCc1ccco1 (stereo not given)	6.6	-1.6	-1.0	-4.1	-2.7	-5.6%	-0.4%
50	CCOC(=O)C1(CCCc2ccccc2)CCN(C(=O)Cc2nonc2C)CC1	8.5	4.2	0.3	-0.9	3.3	-0.9%	0.7%
51	O=C(O)c1ccc2c(c1)C(=O)N(c1ccc([N+](=O)[O-])cn1)C2=O	2.9	0.9	-8.9	0.4	4.0	2.7%	0.4%
52	CCOc1ccc(Nc2ccc(C(=O)O)cc2[N+](=O)[O-])cc1	-4.3	-0.4	-0.2	22.6	-1.5	0.8%	-3.6%
53	COc1cc(S(C)=O)ccc1-c1nc2ncccc2[nH]1 (stereo not given)	-6.0	-3.5	2.0	0.6	-2.3	25.4%&-11.2%	1.1%

# Screens (PubChem)

# Outcome played no part in choosing rows. Share with any hit: about 3.7%.
